# Screening data deposited in PubChem by National Center for Advancing Translational Sciences (NCATS).
# ClpP mod: qHTS Assay for Activators of ClpP; ATP-dependent Clp protease proteolytic subunit (Bacillus subtilis (strain 168)), P80244; purified B. subtilis ClpP, FRET peptide cleavage, 20 min; Potency, µM (series often up to 57.5 µM), for inactives: top-dose activity change, negative = active; 340,000 compounds, 1.9% hits; AID 651965, 2013; active = well fitted falling curve with a large enough effect; inconclusive = small, poorly fitted or top-dose-only effect; inactive = no such curve, though single readings can be large or run the other way; note: potency is the fitted concentration of half-maximal effect; the source files actives as falling curves though it sought activators and does not explain the sign; nearly all actives have a fitted effect of over 65% in size; many hits overshoot -100%
# Target sequence (P80244 whole entry, looked up): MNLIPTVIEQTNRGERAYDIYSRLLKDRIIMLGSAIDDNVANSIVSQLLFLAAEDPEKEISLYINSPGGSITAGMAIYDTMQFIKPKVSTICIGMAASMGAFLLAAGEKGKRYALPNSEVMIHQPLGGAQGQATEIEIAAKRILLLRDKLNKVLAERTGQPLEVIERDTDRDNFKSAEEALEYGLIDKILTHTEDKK
#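 Purified B. subtilis ClpP, 10 microg/mL final in Tris/HCl pH8 with KCl, BSA, glycerol and Tween-20, cleaved an Abz/nitrotyrosine-quenched decapeptide. Fluorescence (ex 320, em 430) was read at 0 and 20 min at room temperature. Delta was normalized to 5.8 microM ADEP and DMSO/no-enzyme controls.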
# gsp antag: qHTS for Antagonists of gsp, the Etiologic Mutation Responsible for Fibrous Dysplasia/McCune-Albright Syndrome: qHTS. AID 624288, 2012. 340,000 compounds, 0.4% hits. Potency, µM (doses to about 76.9 µM), for inactives: at the highest dose activity change, negative = inhibition, hits mostly inhibitors. gsp-mutant cells, cAMP HTRF, 30 min; control for the full effect not named in the record; active = falling curve of any shape with a large fitted effect; inconclusive = falling curve, mostly with a smaller effect; inactive = flat or rising curve; cell line not stated here;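 note: intracellular cAMP measured with PDE inhibitor Ro 20-1724 present during compound exposure; potency is the fitted concentration of half-maximal effect; % is set by controls: 0 for no effect and ±100 for the full control effect; nearly all actives have a fitted effect of over 65% in size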
#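 HTRF cAMP measurement after 30 min RT detection following 30 min, 37C compound treatment alongside […] (added as 300 uM solution) in G418-selected cells seeded at 2000/well and grown 16–24 h.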
# TRPML1 inh: qHTS for Inhibitors of the Human Mucolipin Transient Receptor Potential 1 (TRPML1) | TRPML1-inducible cells, Ca2+ dye fluorescence, FDSS; hits give low values; inhibition of EC80 agonist-evoked calcium signal | Mucolipin-1 (Homo sapiens), Q9GZU1 | activity change, negative = inhibition, % (concentration not given with the values) | AID 624415, 2012 | 390,000 compounds, 0.02% hits; in the data active means activity change below about -50%; inconclusive means about -30% to -50%; inactive means above about -30%;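 note: stimulus is agonist 54-4 at its EC80 concentration; % is set by controls: 0 for no effect and ±100 for the full control effect; the text of the record puts the active cut at -80%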
# Target sequence (Q9GZU1 whole entry, looked up): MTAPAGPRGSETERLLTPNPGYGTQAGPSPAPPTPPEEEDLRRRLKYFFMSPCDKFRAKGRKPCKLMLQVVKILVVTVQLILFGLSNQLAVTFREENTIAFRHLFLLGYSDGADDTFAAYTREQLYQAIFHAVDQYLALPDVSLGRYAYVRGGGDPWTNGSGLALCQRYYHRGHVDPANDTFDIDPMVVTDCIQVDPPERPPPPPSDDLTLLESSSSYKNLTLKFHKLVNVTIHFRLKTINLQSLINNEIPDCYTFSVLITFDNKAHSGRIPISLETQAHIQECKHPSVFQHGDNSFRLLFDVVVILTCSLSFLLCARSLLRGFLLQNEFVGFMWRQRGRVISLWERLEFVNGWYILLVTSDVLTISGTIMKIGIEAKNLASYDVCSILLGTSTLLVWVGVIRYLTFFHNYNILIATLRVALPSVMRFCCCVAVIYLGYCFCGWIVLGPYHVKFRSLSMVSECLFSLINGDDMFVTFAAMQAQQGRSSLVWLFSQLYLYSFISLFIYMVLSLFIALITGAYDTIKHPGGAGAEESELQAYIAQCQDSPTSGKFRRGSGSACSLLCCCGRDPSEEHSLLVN
#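 TRPML1-DL cells, Tet-induced overnight (~16 h, 37 °C) at 1,500 cells/well, were loaded with Ca8 no-wash dye plus quencher for 45-90 min at room temperature. Compounds were pinned during FDSS kinetic reading; agonist 54-4 at EC80 (4 uM final) then added.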
# gsp ag: qHTS for Agonist of gsp, the Etiologic Mutation Responsible for Fibrous Dysplasia/McCune-Albright Syndrome: qHTS. AID 624287, 2012. Potency, µM (highest dose often 76.9 µM), for inactives: at the highest dose activation (cAMP increase), usual class: activators. 340,000 compounds, 0.13% hits. gsp mutant cells, cAMP HTRF, 30 min; control for the full effect not named in the record; active = well fitted activation curve with a large enough effect; inconclusive = small, poorly fitted or top-dose-only effect, or another doubt; inactive = no such curve, though single readings can be large or run the other way; cell line not stated here;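 note: phosphodiesterase inhibitor Ro 20-1724 added with compounds to block cAMP breakdown; potency is the fitted concentration of half-maximal effect; nearly all actives have a fitted effect of over 60% in size; about a fifth of the inactives were tested at one dose only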
#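 Cells in DMEM/10% FBS with G418 were pretreated with compounds in DMSO plus […] (300 uM stock) for 30 min at 37C. cAMP was measured by HTRF (cAMP-d2 plus anti-cAMP antibody-K) after 30 min at room temperature.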
# Menin-MLL FL inh: qHTS Assay for Inhibitors Targeting the Menin-MLL Interaction in MLL Related Leukemias: Competition With Fluorescein Labeled MLL-derived Peptide | Fluorescence polarization, fluorescein-MLL peptide displacement from menin | FP activity change, % at 61.4 µM | 290,000 tested, under 10 active; inconclusive = falling polarisation curve, or a change in total fluorescence; inactive = total fluorescence flat and polarisation flat or rising; no compound was filed as active; the % refers to the polarisation; negative = inhibition;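 note: % of control where 0% means no effect; inhibitors lower the polarisation; unlabelled MLL peptide was the positive control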
# TRPML1 ag: qHTS for Agonists of the Human Mucolipin Transient Receptor Potential 1 (TRPML1). Mucolipin-1 (Homo sapiens), Q9GZU1. TRPML1-expressing cells, Ca2+ dye fluorescence, FDSS; host cell line not named in the record; reference of the full effect not given here. activation, % (test concentration not listed). 410,000 compounds, 0.12% hits. AID 624414, 2012; in the data active = activation above about 50%; inconclusive = about 30% to 50%; inactive = below about 30%; note: 0% is about no effect; the text of the record puts the active cut at 80%
#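 In this qHTS format, compounds were pin-transferred onto Ca8-dye-loaded TRPML1-DL cells induced with Tet overnight, and intracellular Ca2+ fluorescence was recorded kinetically for 110 s after a 10 s baseline. A subsequent 4uM final 54-4 (EC80) addition followed by a second 110 s read served as the antagonist phase.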
# Numbers without * were called inactive; ? = inconclusive; nt = no result given; & = joins results of further samples; [ ] = dose if it differs, or a comment.
SMILES,ClpP mod,gsp antag,TRPML1 inh,gsp ag,Menin-MLL FL inh,TRPML1 ag
O=C(NCCCc1nc2ccccc2n1Cc1ccc(Cl)cc1)c1ccco1,-1.2%,nt,45.4,nt,nt,0.7
O=C(Oc1ccccc1Cl)C1CCN(C(=O)c2ccc(F)cc2)CC1,-2.0%,-2.6%,-13.1,-11.8%,nt,-0.1
N#CC1=C(N)NC(SCc2ccc(Br)cc2)=C(C#N)C12CCCCC2,-2.8%,?,12.2,-4.5%,2.6,0.9
CCn1nc(NC(=O)c2cccs2)c2cc3ccccc3nc21,-6.1%,-9.5%,-2.1,35.0%,0.6,2.0
Cc1ccc(C(=O)N2CCCC2)cc1S(=O)(=O)N1CCCCC1,-2.4%,7.7%,-4.9,2.2%[15.4 µM],nt,-0.2
O=C(CSc1nc2ccccc2s1)NC1CCCC1,-0.6%,6.7%,-2.8,-1.0%[15.4 µM],3.8,0.1
CC(=O)Nc1ccc(S(=O)(=O)NNC(=O)c2cccc3ccccc23)cc1,-4.3%,0.4%,-5.3,10.1%,3.7,1.0
Cc1ccc2c(O)c(C)c(=O)[nH]c2n1,nt,nt,12.1,-0.6%[15.4 µM],-0.2,0.1
CN1CCN(C2CC(=O)N(CCc3ccccc3)C2=O)CC1 (configuration not stated),-0.9%,-2.7%,-3.8,-15.3%,-0.9,-0.1
COc1ccc(C(=O)O/N=C(\N)c2ccccn2)cc1,nt,6.8%,23.7,-6.5%[15.4 µM],0.7,0.0
CCOC(=O)C1=NN(c2ccccc2)C2(S1)SC(C(C)=O)=C(C)N2c1ccccc1 (configuration not stated),-2.3%,9.9%,36.1,0.0%,2.9,1.5
COc1cccc(C(=O)Nc2cnn(C(C)C)c2)c1,1.0%,-8.7%,18.6,9.3%[15.4 µM],-1.8,-0.2
COc1ccc(/C=N/Nc2nonc2N)cc1,-0.5%,9.5%,-1.8,12.9%,1.5,0.2
COc1cc(C(=O)Nc2c(C(=O)N3CCOCC3)oc3ccccc23)cc(OC)c1OC,-0.2%,2.2%,-8.9,13.4%,nt,0.9
Cc1cc(C)cc(N2C(=O)CSC23C(=O)N(CC(=O)NC2CCCCC2)c2ccccc23)c1 (configuration not stated),-1.4%,nt,50.9,nt,nt,4.4
O=C(O)CC(NC(=O)C12CC3CC(CC(C3)C1)C2)c1ccc(Cl)cc1 (configuration not stated),-1.5%,-2.8%,23.2,17.1%,-2.1,-0.8
Cc1cc(-c2nnc3n2CCCCC3)c(C)n1-c1ccccc1,-15.5%,-6.9%,-2.3,0.3%,-1.0,-0.5
CCOC(=O)N/N=C(/C)c1ccc(N2C(=O)C3CCCCC3C2=O)cc1 (configuration not stated),0.1%,-4.3%,-1.5,?,-1.5,1.1
COc1ccc2c(c1)CCC(C)N2C(=O)C(=O)c1c[nH]c2ccccc12 (configuration not stated),-1.1%,-10.9%,nt,-8.8%,-0.5,nt
O=C(COC(=O)/C=C/c1ccc(C(F)(F)F)cc1)Nc1ccc2[nH]c(=O)[nH]c2c1,1.7%,2.6%,32.0,-25.4%,nt,-0.5
O=C(c1ccncc1)N1CCN(S(=O)(=O)c2ccc3ccccc3c2)CC1,0.2%,-14.5%,-0.9,?,0.3,0.1
COc1cc([C@@H]2CC=C(C(=O)O)[C@H](c3ccc(Cl)cc3)N2S(=O)(=O)c2ccc(C)cc2)cc(OC)c1OC,-3.2%,-11.7%,19.1,-5.1%,nt,-1.0
COC(=O)[C@]1(Cc2ccccc2)N[C@H](CN(C)S(=O)(=O)c2ccc(OC(F)(F)F)cc2)[C@@H]2C(=O)N(Cc3ccccc3)C(=O)[C@@H]21,2.9%,?,12.0,nt,nt,-0.1
COc1cc2cc[n+](Cc3ccc([N+](=O)[O-])cc3)cc2cc1OC,-6.4%,13.3%,-8.7,12.4%,3.6,1.4
O=C(NCc1ccco1)c1ccccc1-c1nc(-c2ccc(F)cc2)no1,nt,-8.0%,-5.3,2.2%,-0.4,0.0
O=C(NC1CCS(=O)(=O)C1)/C(=C\c1ccccc1)NC(=O)c1ccccc1 (configuration not stated),1.0%,11.2%,-9.3,2.5%,2.7,0.1
O=C(Nc1cccnc1)c1ccc([N+](=O)[O-])o1,0.0%,6.4%,nt,-19.7%,2.6,nt
O=C(CSc1ccc2c(c1)OCCO2)Nc1ccc(N2CCOCC2)cc1,nt,-50.0%,-16.3,5.9%[15.4 µM],0.2,0.9
O=C(NCc1ccc(Cl)cc1)C(=O)NCC1OCCN1S(=O)(=O)c1cccs1 (configuration not stated),0.4%,5.2%,-0.9,-15.9%,0.1,-0.5
Cc1cc(C)cc(OCC(=O)Nc2ccccc2N2CCCCC2)c1,0.5%,4.3%,4.1,3.6%,3.2,3.3
O=C(Cc1cccc(C(F)(F)F)c1)NCc1ccc(Cl)cc1Cl,1.2%,6.0%,6.9,-3.9%[15.4 µM],2.9,0.0
O=C(NCC1CCCO1)c1ccc(NC(=O)C2CC=CCC2C(=O)O)cc1 (configuration not stated),-11.9%,2.8%,0.6,-40.0%[inhibitor],2.7,1.4
Fc1ccccc1/C=N/n1cc(-c2ccccc2)[nH]c1=S,nt,?,41.3,10.0%,0.9,0.2
CCN1CCc2nc(N)oc2CC1,-2.7%&-7.8%,-4.5%,0.4,nt,-2.3,-0.1&0.3
O=C(NCCCn1ccnc1)C(=O)Nc1ccccc1,nt,-11.4%,-1.5,10.2%[15.4 µM],-6.3,-0.4
Clc1ccc(C2[C@H]3CN(CC4CCCCC4)[C@H](c4ccccc4)C34CC2(c2cccnc2)C4)cn1 (some centres not stated),-3.0%,-17.4%,2.0,nt,10.8&1.8,1.2
COCCCN1C(=O)C2C(C(=O)Nc3cc(C)cc(C)c3)C3C=CC2(O3)C1C(=O)NC1CCCCC1 (configuration not stated),nt,-3.5%,-8.0,16.5%[15.4 µM],4.0,0.7
O=C(NN=Cc1ccccc1C(=O)O)c1cccc(S(=O)(=O)Nc2cccc(C(F)(F)F)c2)c1,-0.1%,4.9%,33.4,-20.0%,nt,0.7
O=C(NCc1ccccc1)C1CCC(CNS(=O)(=O)c2cccs2)CC1 (configuration not stated),-0.6%,1.5%,-7.6,16.8%[15.4 µM],-0.1,-1.3
Cc1ccc(C)c(C(=O)CSc2nc3cc(C(=O)NC4CCCC4)ccc3c(=O)n2CC2CCCO2)c1 (configuration not stated),-0.3%,nt,20.8,nt,nt,-1.0

# 4 of these compounds, reformatted:
# The line under a structure holds: ClpP mod, gsp antag, TRPML1 inh, gsp ag, Menin-MLL FL inh, TRPML1 ag
COCCCN1C(=O)C2C(C(=O)Nc3cc(C)cc(C)c3)C3C=CC2(O3)C1C(=O)NC1CCCCC1 (configuration not stated)
  nt, -3.5%, -8.0, 16.5%[15.4 µM], 4.0, 0.7
O=C(NN=Cc1ccccc1C(=O)O)c1cccc(S(=O)(=O)Nc2cccc(C(F)(F)F)c2)c1
  -0.1%, 4.9%, 33.4, -20.0%, nt, 0.7
O=C(NCc1ccccc1)C1CCC(CNS(=O)(=O)c2cccs2)CC1 (configuration not stated)
  -0.6%, 1.5%, -7.6, 16.8%[15.4 µM], -0.1, -1.3
Cc1ccc(C)c(C(=O)CSc2nc3cc(C(=O)NC4CCCC4)ccc3c(=O)n2CC2CCCO2)c1 (configuration not stated)
  -0.3%, nt, 20.8, nt, nt, -1.0

# (next part)
SMILES,ClpP mod,gsp antag,TRPML1 inh,gsp ag,Menin-MLL FL inh,TRPML1 ag
CC(=O)Nc1ccc(NC(=O)C(C)OC(=O)c2oc3ccccc3c2C)cc1 (configuration not stated),nt,-1.0%,2.1,-1.3%[15.4 µM],nt,-0.7
O=C(Cc1ccc(F)cc1)N1CCC(CC2CC(c3cccc(Br)c3)=NO2)(C(=O)NCC2CCCCC2)CC1 (configuration not stated),-3.0%,-8.6%,-2.5,-54.1%[inhibitor],-0.9,1.0
CN1CCN(C2=C(Cl)C(=O)N(CCc3ccccc3)C2=O)CC1,-0.9%,-5.8%,-1.6,-9.8%,-14.2,0.4
CC(C)C[C@@H](CO)N(Cc1ccccc1)S(=O)(=O)N(Cc1ccccc1)[C@@H](CO)CC(C)C,-0.8%&1.2%,-8.2%,-15.0,12.4%,nt,1.8&1.9
CC(=O)Nc1ccc(S(=O)(=O)NC(C)C(=O)OCC(=O)Nc2ccc(F)cc2Cl)cc1 (configuration not stated),-2.3%,nt,-14.2,10.7%,nt,-0.4
CCN1CCc2nc(NC(=O)CC(c3ccccc3)c3ccccc3)sc2C1,-3.1%,20.9%,1.5,-37.3%[inhibitor],17.5,5.1
COC(=O)Cc1ccc(NC(=O)c2ccc(C)c(C)c2)cc1,0.9%,-5.3%,-7.4,10.0%,1.5,0.1
COC(=O)C[C@H]1C[C@H]2c3cc(NS(=O)(=O)c4ccc(OC)cc4)ccc3O[C@H]2[C@H](CO)O1,-1.3%,nt,-11.8,-65.9%[inhibitor],nt,-0.4
COc1cccc(C(=O)Nc2cccc(OC(C)=O)c2)c1,-2.1%,-10.4%,-13.3,-9.8%,-4.2,0.2
OCC1CCCN(C2CCN(Cc3nc(Cc4cccc(C(F)(F)F)c4)no3)CC2)C1 (configuration not stated),nt,14.0%,12.7,-12.6%[15.4 µM],-0.1,1.1
Cc1cc(-n2cc(Br)c(=O)[nH]c2=O)nc(-c2ccccc2)n1,-2.4%,-13.7%,18.3,-0.8%,2.3,0.9
CC(=O)C1=C(O)C(=O)N(c2ccc(Br)cc2)C1c1cccc([N+](=O)[O-])c1 (configuration not stated),0.3%,-2.5%,0.5,?,-2.3,0.0
CCOc1cc2c(cc1OC)C(NC(=O)C(F)(F)F)CC2=O (configuration not stated),?,-2.6%,-0.8,-31.3%,5.3,-0.1
CCOc1ccc(CCNC(=O)c2ccc(C)c(-n3cnc4cccnc43)c2)cc1,-0.3%,nt,10.0,nt,nt,2.0
CCNC(=O)C1(C)CCCN1Cc1c(F)cccc1F (configuration not stated),-0.4%,nt,89.1,nt,nt,3.1
COc1cc(/C=N\Nc2nc3ccccc3[nH]2)cc(OC)c1OC,-7.2%,-24.2%,1.0,12.8%,?,-0.4
Cc1nc(SCC(=O)Nc2ccnc3ccccc23)n[nH]1,-0.2%,-2.4%,2.4,?,1.1,0.6
CN(C)c1ccc(-c2n(C)c3ccccc3[n+]2C)cc1,-6.5%,-8.6%,9.4,2.4%,5.8,0.2
